GLA inh pH 4.5: blocks human alpha-galactosidase A at pH 4.5 | 230,000 tested, under 10 active | activity change, negative = inhibition, % at 105 µM | P06280 | purified enzyme, 4-MU-alpha-Gal fluorescence, pH 4.5; inconclusive = small, poorly fitted or top-dose-only inhibition, or a rising curve; inactive = flat fitted curve, though single readings scatter; no compound was filed as active;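 note: 0% = full activity with enzyme and -100% = basal without enzyme; dose as in the result columns while the protocol names 77 µM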
Target sequence (P06280 whole entry, looked up): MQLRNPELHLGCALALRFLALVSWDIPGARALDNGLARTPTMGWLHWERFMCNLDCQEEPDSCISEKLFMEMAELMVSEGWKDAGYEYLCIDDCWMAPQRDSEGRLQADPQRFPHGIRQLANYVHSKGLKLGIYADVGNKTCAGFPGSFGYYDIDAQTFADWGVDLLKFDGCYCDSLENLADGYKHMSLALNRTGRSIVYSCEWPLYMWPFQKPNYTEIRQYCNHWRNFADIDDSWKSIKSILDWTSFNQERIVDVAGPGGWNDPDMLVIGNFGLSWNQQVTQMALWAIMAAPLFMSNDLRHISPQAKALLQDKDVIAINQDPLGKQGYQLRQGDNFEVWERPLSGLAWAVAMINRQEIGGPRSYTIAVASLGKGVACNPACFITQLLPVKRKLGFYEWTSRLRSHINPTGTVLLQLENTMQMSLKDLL
miR-21 reporter: miR-21 reporter, rising signal; AID 2288; 340,000 tested, under 10 active; HeLa miR-21 FLuc reporter, luciferase, 48 h; Potency, µM (highest dose often 38.3 µM), inactives show top-dose reporter change, positive = more light; active = well fitted rising curve with a large enough effect; inconclusive = small, poorly fitted or top-dose-only effect; inactive = no such curve, though single readings can be large or run the other way;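 note: % of control where 0% means no effect; miR-21 action dims this reporter so a rising signal means less miR-21 action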
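Using DMEM plus 10% FBS, HeLa miR-21-FLuc cells are incubated with test compounds (final up to about 40uM) for 48 hours; firefly luciferase signal is then imaged following reagent-mediated lysis.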
Rango complex inh: prevents formation of the Rango-importin beta complex. Q14974. Rango CFP/YFP FRET sensor + importin beta, 45 min. Potency, µM (top dose mostly 92.2 µM), for the others: at the highest dose inhibition of complex formation. 0.031% of 340,000 active. AID 540263; active = rising FRET ratio curve, often small or poorly fitted; inconclusive = mostly compound fluorescence or quenching in the first reads; inactive = flat curves in all reads;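 note: potency is the fitted concentration of half-maximal effect; 0% = DMSO wells and 100% = buffer wells lacking importin beta; nearly all actives have a fitted effect of over 15% in size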
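Inhibition scored from the CFP 486 nm/YFP 530 nm FRET ratio 45 min after adding 0.125 microM importin beta to 50 nM Rango biosensor preincubated 5 min with compound (room temperature, PBS with DTT, Tween-20, BSA). No-importin wells as positive control.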
Rango dissoc inh: prevents RanGTP from dissociating the Rango-importin beta complex. AID 540253. Biochemical FRET Rango-importin beta, RanGTP-induced dissociation. Potency, µM (series often up to 46.1 µM), for the others: at the top dose activity change, negative = inhibition. 0.071% of 340,000 active. O95149+P62826; active means falling FRET ratio curve, often poorly fitted, with flat reads before Ran was added; inconclusive means other falling curves, or compound fluorescence or quenching; inactive means flat or rising ratio curve;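 note: potency is the fitted concentration of half-maximal effect; % of control where 0% means no effect; nearly all actives have a fitted effect of over 45% in size; -100% = wells without RanGTP and RCC1; the record marks most hits as doubtful in a second field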
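Quantitative HTS using a FRET biosensor: 0.1 uM Rango, 0.25 uM importin beta, 0.6 uM Ran, 2 mM GTP, 0.2 uM RCC1 final, PBS with DTT, Tween-20 and BSA. Post-read taken 45 min after Ran addition.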
* marks the source's active call; other numbers are inactive results; ? = inconclusive; / = no result given; [ ] = remark or other dose. The list is partial; the hit share may differ from the screen's.

SMILES | GLA inh pH 4.5 | miR-21 reporter | Rango complex inh | Rango dissoc inh
CC(C)CN(C(=O)c1cccc(F)c1)c1c(N)n(CC(C)C)c(=O)[nH]c1=O | / | 0% | -1.6% | -21%
COc1ccccc1CN1CCC(CNS(=O)(=O)c2cc(-c3cc(C)no3)ccc2C)CC1 | / | -1% | -2.3% | 0%
CCCN1CCN(C(=S)Nc2ccccc2C(F)(F)F)CC1 | -1 | 22% | ? | -19%
CCOC(=O)C1=C(C)NC(=S)NC1c1cccs1 (stereo unspecified) | -3 | 2% | -3.0% | -21%
Cc1cc(N2CCN(C)CC2)ccc1NC(=O)c1c2c(nc3ccccc13)CCN(Cc1ccccc1)C2 | -8 | -26% | -0.3% | -1%
Cc1ccc(SCC(=O)NCCC2=CCCCC2)cc1 | 10 | -40% | 2.4% | 6%
CCN(CC)C(=O)[C@H]1C[C@H](CC(=O)NCc2ccco2)C(=O)N2CCc3c([nH]c4cc(-c5ccco5)ccc34)[C@]12C | / | / | ? | -4%
Cc1nn(Cc2ccccc2)c2c1C(c1ccco1)C(C#N)=C(N)O2 (stereo unspecified) | 3 | 7% | -5.3% | -13%
COCCn1cnnc1SCC(=O)c1ccc(S(=O)(=O)N2CCCC2)cc1 | 4 | -4% | ? | -11%
On1nnc2cc(C(F)(F)F)ccc21 | -7 | -1% | -1.4% | 2%
O=C(CCC(=O)c1cccs1)OCC(=O)c1ccccc1F | / | / | 5.4% | -5%
CN(CC(=O)Nc1ccccc1Br)Cc1nc2ccccc2c(=O)[nH]1 | 7 | -8% | -1.3% | 21%
Cc1ccc(S(=O)Cc2ccc(C(=O)N3CCN(C4CCCCC4)CC3)o2)cc1 (stereo unspecified) | / | 1% | -2.5% | 1%
CCOC(=O)c1c(C)[nH]c(C(=O)CN(C)CC(=O)Nc2ccccc2Cl)c1C | / | / | 4.5% | -4%
CCOc1ccc(CN2CCN(C(=O)c3ccco3)CC2)cc1 | / | -3% | -4.4% | 1%
CSc1cccc(NC(=O)Nc2ccccc2)c1 | -1 | -20% | -5.6% | 2%
NC(=O)CSc1ccc(S(=O)(=O)N2CCOCC2)cn1 | / | / | ? | -23%
NS(=O)(=O)c1cccc(NC(=O)CSc2nc3ccccc3[nH]2)c1 | 4 | 0% | 1.9% | -3%
CCCCn1c(=O)[nH]c(=O)c2c(C(=O)OCC)cc(-c3cccs3)nc21 | ? | -2% | ? | -2%
CC(OC(=O)c1cccnc1Cl)C(=O)Nc1ccc(S(N)(=O)=O)cc1 (stereo unspecified) | 6 | 1% | ? | 0%

Full records, quoted from the list. Screens in order: GLA inh pH 4.5	miR-21 reporter	Rango complex inh	Rango dissoc inh
CN(CC(=O)Nc1ccccc1Br)Cc1nc2ccccc2c(=O)[nH]1 across the screens: 7	-8%	-1.3%	21%
CSc1cccc(NC(=O)Nc2ccccc2)c1 across the screens: -1	-20%	-5.6%	2%
CC(OC(=O)c1cccnc1Cl)C(=O)Nc1ccc(S(N)(=O)=O)cc1 (stereo unspecified) across the screens: 6	1%	?	0%
NC(=O)CSc1ccc(S(=O)(=O)N2CCOCC2)cn1 across the screens: /	/	?	-23%
NS(=O)(=O)c1cccc(NC(=O)CSc2nc3ccccc3[nH]2)c1 across the screens: 4	0%	1.9%	-3%

Carrying on.
SMILES | GLA inh pH 4.5 | miR-21 reporter | Rango complex inh | Rango dissoc inh
Cc1ccc(C)c(NC(=O)c2ccc(OC(=O)c3ccco3)cc2)c1 | 2 | -24% | 7.7% | 10%
COc1ccc(O)c(C(=O)c2cnc3c(c2)c(-c2ccc(F)cc2)c(C#N)c(=O)n3C)c1 | 0 | -21% | 0.4% | -21%
COC(=O)N/N=C/c1ccc(-c2ccc(C)c(Cl)c2)o1 | -11 | -46% | -2.7% | 14%
Cc1cc(=O)oc2cc(OCC3CC(c4ccc(Br)cc4)=NO3)ccc12 (stereo unspecified) | 1 | -12% | 2.7% | 10%
CCOc1ccc(NC(=O)CCC(=O)N/N=C/c2ccc3c(c2)OCO3)cc1 | 11 | -7% | -1.4% | 3%
C=CCn1c(O)c(N=NC(=O)CNC(=O)/C=C/c2ccc(OC)cc2)c2ccccc21 | -3 | 2% | 3.2% | 22%
CCC(Oc1ccc(C)cc1)C(=O)Nc1ccc(S(=O)(=O)Nc2cc(C)on2)cc1 (stereo unspecified) | / | 1% | 0.8% | 0%
CC1CCC(=NNc2ccc(C(F)(F)F)cc2[N+](=O)[O-])CC1 (stereo unspecified) | 7 | -10% | -3.7% | 3%
C=CCn1c(C)c(C(C)=O)cc(NC(=O)c2ccccc2)c1=O | 4 | -13% | 2.9% | -17%
Cc1ccc(N(C(C)C(=O)NCc2ccncc2)S(C)(=O)=O)cc1C (stereo unspecified) | 0 | 2% | 0.4% | -1%
O=C1c2ccccc2NC(c2cnc3ccccc3n2)N1O (stereo unspecified) | 0 | -43% | -2.3% | -1%
O=C1CCC(C(=O)N2CCC(CCO)CC2)CN1Cc1ccc(Cl)cc1 (stereo unspecified) | / | 1% | 0.1% | -9%
CC(=O)N1CCc2cc(S(=O)(=O)N3CCCCC3C)ccc21 (stereo unspecified) | / | -4% | -0.3% | 44%
Cc1ccc(OCCCC(=O)Nc2cc(S(=O)(=O)N3CCOCC3)ccc2N2CCOCC2)cc1 | / | / | 2.9% | 8%
O=C(c1ccccc1)c1c[nH]c(C(=O)NCCCn2ccnc2)c1 | -5 | 1% | -0.4% | -25%
CCCN1C(C)C(C(=O)OCC)=CN(Cc2ccc(Br)cc2)S1(=O)=O (stereo unspecified) | / | / | -0.2% | -11%
CCN(CC)CCNC(=O)Cn1nc(Cc2cccnc2)c2ccccc2c1=O | 8 | 0% | 2.5% | -11%
Cc1ccc(CSCC(=O)Nc2cc(S(=O)(=O)N3CCOCC3)ccc2OCC(F)(F)F)cc1 | / | / | -2.8% | 1%
COc1ccccc1C1(CCNS(=O)(=O)c2ccc(C)cc2)CCOC(C(C)C)C1 (stereo unspecified) | -3 | 9% | 3.8% | 1%
O=C(COC(=O)Cc1ccc(F)cc1)NC(=O)NC1CCCC1 | / | / | -1.6% | -1%
Cc1ccnc(NC(=S)NC(=O)c2cccs2)c1 | 10 | -61% | 0.3% | -4%
Cc1cc(OC(=O)c2ccccc2Cl)ccc1N1C(=O)CCC1=O | -3 | 3% | -5.7% | -5%
O=C(Nc1ccccc1C(=O)NC1CCCCC1)c1ccco1 | 2 | -2% | -2.8% | -13%
Cc1cccc(NC(=O)Nc2ccncc2)c1 | 3 | -20% | -1.1% | -9%
CCN(Cc1ccccc1)C(=O)C1CCN(C(=O)Nc2ccccc2)CC1 | / | 0% | -1.6% | 10%
O=C(c1ccc2c(c1)OCCO2)N1CCN(c2ncc(C(F)(F)F)cc2Cl)CC1 | / | / | -1.7% | -2%
CC(=O)Nc1cccc2c1C(=O)N(c1ccccc1OC(C)=O)C2=O | -1 | -2% | -1.4% | 9%
Cc1noc(C)c1NC(=O)N(C)C[C@H]1Oc2ccc(NC(=O)CCC(F)(F)F)cc2C(=O)N([C@H](C)CO)C[C@@H]1C | / | / | 6.6% | -3%
O=C(Cc1ccc(F)cc1)NCCS(=O)(=O)N1CCN(c2cccc(Cl)c2)CC1 | / | / | 0.8% | 18%
CCn1c(COc2ccccc2OC)nnc1SCC(=O)NC1CCCC1 | / | 5% | 2.9% | -8%
CN(CCCNC(=O)CSc1cc(=O)n(C)c2cc(Cl)ccc12)Cc1ccccc1 | 5[21.1 µM] | 0% | 5.3% | -22%
O=C(CSc1cccc[n+]1[O-])NC1CCCCCCC1 | -5 | -8% | -0.9% | 21%
CCN(CCO)Cc1cc(=O)oc2cc3c(cc12)CCC3 | -1 | -16% | 1.4% | 9%
CCOc1cc(CNCc2ccccn2)ccc1OCC(=O)NC1CCCCC1 | 11 | 0% | 2.4% | 2%
Cc1ccccc1C1CCCN(Cc2nc(C3CC3)no2)C1 (stereo unspecified) | 3 | -2% | 0.0% | 27%
CCCCCCCCC(=O)NCCOc1ccc(OC)cc1 | 2 | -5% | 0.7% | -15%
NC(=O)COC(=O)CSc1ccc2ccccc2c1 | -4 | -3% | 2.5% | -13%
CSc1nnc2ccc(-c3ccc(C)cc3)nn12 | / | -20% | 0.8% | 8%
CCC(=O)c1ccc(OCC(O)CN2CCCCC2)cc1 (stereo unspecified) | ? | -3% | -0.2% | -5%
O=C(CCl)Oc1ccc2occ(C(=O)c3cccs3)c2c1 | 0 | -42% | 0.3% | -1%
CC(=O)N1CC(C)Oc2ccc(S(=O)(=O)NC(CC(=O)O)c3ccccc3C)cc21 (stereo unspecified) | / | -2% | 5.3% | -1%
COc1ccc(N2CC(C(=O)N3CCC(c4nc5ccccc5[nH]4)CC3)CC2=O)cc1 (stereo unspecified) | / | / | -0.4% | 8%
CN1OC[C@@H]2CN(C(=O)C(C)(C)C)[C@H](c3cccc(Br)c3)C[C@@H]21 | / | / | -1.8% | 5%
O=C(CCS(=O)(=O)Cc1ccccc1)NCc1ccco1 | -2 | 0% | 6.8% | -2%
C=CCOC(=O)C1=C(C)NC(SCC(=O)NC(=O)OCC)=C(C#N)C1c1cccnc1 (stereo unspecified) | 18 | -13% | ? | ?
CCC(CC)N1CCN(C(=O)c2cc(OC)c(OC)c(OC)c2)CC1 | / | 2% | 1.6% | 1%
O=C(CSc1nc(C2CC2)nc2ccccc12)N1CCCCC1 | / | 11% | 1.6% | 10%
Cc1ccc(-n2cc(CNCCN3CCOC3=O)c(-c3cccc(C)c3)n2)cc1 | -7 | -7% | -2.6% | -2%
O=C(CSc1ccc(F)cc1)Nc1ccccc1Br | 5 | -54% | -0.9% | -7%
COc1cccc(NC(=O)C2CC(=O)N=C(N)S2)c1 (stereo unspecified) | 2 | -1% | 5.9% | 54%
(more compounds)
SMILES | GLA inh pH 4.5 | miR-21 reporter | Rango complex inh | Rango dissoc inh
O=C(CN1CCN(C(=O)c2ccco2)CC1)Nc1ccccc1 | / | 0% | 1.5% | -4%
O=C(Oc1cccc(N2C(=O)CCC2=O)c1)C1CC(=O)N(c2ccc(Br)cc2)C1 (stereo unspecified) | -2 | -5% | 6.1% | -6%
CC(=O)Nc1ccc(S(=O)(=O)N(C)c2nc3ccccc3nc2Cl)cc1 | / | 26% | 0.7% | ?
COc1cc(C2NC(=S)NC(O)(C(F)(F)F)C2C(=O)c2cccs2)cc(OC)c1O (stereo unspecified) | -2 | -2% | -0.8% | 0%
CCc1ccc(Nc2cc(C)nc3nc(C)nn23)cc1 | 5 | -10% | -0.5% | -15%
COc1ccc(N(CC(=O)NCC(C)C)S(=O)(=O)c2ccccc2)cc1 | 2 | 1% | -2.0% | -1%
CCOC(=O)C1=C(C)C(c2ccccc2O)NC(=O)N1 (stereo unspecified) | 7 | 6% | -4.5% | 1%
Cc1cccc(N2CCN(C(=O)c3ccc(NC4=NC5CS(=O)(=O)CC5S4)cc3)CC2C)c1 (stereo unspecified) | / | -1% | 0.4% | -1%
CCOc1cc(C(=O)OCc2ccc([N+](=O)[O-])cc2)ccc1OCC(=O)N1CCOCC1 | / | / | 3.8% | -3%
COc1ccc(C(CC(=O)N2CCCC2)c2ccc(F)cc2)cc1 (stereo unspecified) | / | -3% | -2.1% | -20%
COc1ccc(NC(=O)COC(C)=O)cc1Cl | 2 | 1% | -0.8% | 14%
CCOc1ccccc1N1C(=O)CN(Cc2ccc(OC)c(OC)c2)C1=S | / | -5% | 0.1% | 5%
Cc1ccc(C(=O)/C=C/c2ccc(F)cc2)o1 | -7 | 4% | -3.8% | 7%
COc1ccc(CNC(=S)NCc2ccc(Cl)cc2)cc1OC | / | 8% | -0.1% | 1%
Cn1c(=O)oc2cc(S(=O)(=O)N3CCN(c4cccc(Cl)c4)CC3)ccc21 | 0 | -2% | -1.4% | -2%
O=C(CNC(=O)c1ccco1)OC(C(=O)c1ccccc1)c1ccccc1 (stereo unspecified) | 4 | 1% | -0.9% | -11%
COc1cc(OC)c(NC(=O)C2CCCO2)cc1Cl (stereo unspecified) | / | -8% | 0.6% | 1%
Nc1c(C(=O)N/N=C/c2cccnc2)cnn1-c1ccccc1 | 10 | -62% | 1.6% | 23%
Cc1ccc(-n2nc3c(N4CCC(C(=O)N5CCN(C)CC5)CC4)nnc(C)c3c2C)cc1 | / | -4% | -0.7% | -18%

Screening data deposited in PubChem BioAssay by National Center for Advancing Translational Sciences (NCATS).
